StopGo reporter = lowers the luciferase signal of an FMDV 2A StopGo reporter; human cells with a luciferase reporter of 2A StopGo recoding; control for the full effect not named in the record; Potency, µM (titrated, usually from 57.9 µM), for inactives: at the highest dose signal change, negative = less light; 410,000 compounds, 1.2% hits; AID 1159524; active = well fitted falling curve with a large enough effect; inconclusive = small, poorly fitted or top-dose-only effect; inactive = no such curve, though single readings can be large or run the other way; tested in HEK293T cells; also: % is scaled to controls: 0 for no effect and ±100 for the full control effect; nearly all actives have a fitted effect of over 45% in size; luciferase light after 4 h
Cruzain noTriton = inhibitors of Trypanosoma cruzi cruzain without detergent | P25779 | purified cruzain, Z-FR-AMC fluorescence, no detergent | Potency, µM, for the others: max response, negative = inhibition, actives largely listed as inhibitors | 200,000 compounds, 2.3% hits | AID 1476; active = well fitted curve in the direction sought with a large enough effect; inconclusive = small, poorly fitted or top-dose-only effect, or another doubt; inactive = no such curve, though single readings can be large; an effect the other way counts as inactive or inconclusive;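 also: plate controls were enzyme without inhibitor for no effect and buffer without enzyme for full effect; nearly all actives have a fitted effect of over 40% in size; top concentration of the series not given in the record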
Target sequence (P25779 123-467 limits assumed): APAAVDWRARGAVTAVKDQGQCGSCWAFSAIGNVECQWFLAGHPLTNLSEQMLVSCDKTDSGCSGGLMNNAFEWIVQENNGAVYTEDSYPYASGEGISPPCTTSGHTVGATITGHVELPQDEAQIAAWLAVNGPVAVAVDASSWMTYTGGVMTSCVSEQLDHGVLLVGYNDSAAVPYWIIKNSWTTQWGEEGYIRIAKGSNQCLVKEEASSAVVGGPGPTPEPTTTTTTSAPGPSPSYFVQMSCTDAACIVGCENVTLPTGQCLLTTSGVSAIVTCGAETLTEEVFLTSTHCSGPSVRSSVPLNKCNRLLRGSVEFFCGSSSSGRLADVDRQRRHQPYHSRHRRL
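Purified cruzain at 1.5 nM, pre-incubated 15 min with compound at room temperature in 100 mM sodium acetate pH 5.5, 5 mM DTT, 0.00005% Triton X-100. Reaction started with 2 uM Z-FR-AMC; AMC fluorescence increase over 60 s gives rate.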
SARS PLpro yeast = inhibitors of SARS-CoV papain-like protease in yeast | S. cerevisiae expressing SARS-CoV PLpro, growth rescue; control for the full effect not named in the record | Potency, µM (doses to about 32.9 µM), for inactives: at the top dose activity, positive = growth rescue | 330,000 compounds, 0.19% hits | AID 485353; also: 0% is about no effect; nearly all actives have a fitted effect of over 55% in size; growth read by luminescence after 48 h
Lassa entry inh = Lassa virus entry inhibition; Lassa virus pseudotype entry inhibition, cell reporter; control for the full effect not named in the record; 300,000 compounds, 1.2% hits; Potency, µM (series often up to 37.9 µM), for the others: top-dose activity change, negative = inhibition, usual class: inhibitors; active means well fitted inhibition curve with a large enough effect; inconclusive means small, poorly fitted or top-dose-only effect, or effect the other way; inactive means flat fitted curve, though single readings scatter; tested in HEK293 cells; also: % is scaled to controls: 0 for no effect and ±100 for the full control effect; nearly all actives have a fitted effect of over 50% in size; luciferase read-out
MARV entry inh = inhibitors of Marburg virus binding or cell entry; Marburg virus pseudotyped entry inhibition, cell reporter; control for the full effect not named in the record; about a third of the inactives were read at about 46 µM; AID 540276; Potency, µM (titrated, usually from 37.8 µM), inactives show top-dose activity change, negative = inhibition, hits mostly inhibitors; 300,000 compounds, 1.8% hits; active = well fitted inhibition curve with a large enough effect; inconclusive = small, poorly fitted or top-dose-only effect, or effect the other way; inactive = flat fitted curve, though single readings scatter; tested in HEK293 cells; about a fifth of its hits are not listed in these tables; also: % is scaled to controls: 0 for no effect and ±100 for the full control effect; luciferase read-out
Cruzain Triton = inhibitors of Trypanosoma cruzi cruzain with detergent; Potency, µM, for inactives: max response, negative = inhibition, hits mostly inhibitors; P25779; purified cruzain, Z-FR-AMC fluorescence, 0.01% Triton; 200,000 compounds, 0.43% hits; active = well fitted curve in the direction sought with a large enough effect; inconclusive = small, poorly fitted or top-dose-only effect, or another doubt; inactive = no such curve, though single readings can be large; an effect the other way counts as inactive or inconclusive;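 also: plate controls were neutral wells for no effect and buffer without enzyme for full effect; nearly all actives have a fitted effect of over 40% in size; top concentration of the series not given in the record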
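Detergent-containing arm of a paired screen for aggregation-based inhibition: 0.01% Triton X-100 present. Cruzain at 1.5 nM cleaved 2 uM Z-FR-AMC at pH 5.5 with 5 mM DTT; AMC fluorescence gain over 60 s measured activity.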
NS1 function inh = influenza NS1 inhibition. 270,000 compounds, 0.4% hits. Potency, µM (top dose mostly 46.1 µM), for inactives: top-dose activity, positive = more growth. S. cerevisiae slowed by influenza A NS1, growth recovery by OD600; also: actives are rising curves; nearly all actives have a fitted effect of over 50% in size
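A cell-based growth assay was used: compounds that relieve NS1-induced slow growth of budding yeast raise OD600. Assay medium was yeast nitrogen base with ammonium sulphate and -URA supplement, pH 6.0, with 2% galactose.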
RE007 growth inh = less growth of the S. pombe RE007 Vpr strain. 360,000 compounds, 0.21% hits. AID 651644. S. pombe RE007 Vpr strain, BacTiter-Glo ATP luminescence, 24 h; control for the full effect not named in the record. Potency, µM (highest dose often 92.2 µM), for the others: top-dose activity change, negative = less growth; active = well fitted falling curve with a large enough effect; inconclusive = small, poorly fitted or top-dose-only effect; inactive = no such curve, though single readings can be large or run the other way;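 also: % is scaled to controls: 0 for no effect and ±100 for the full control effect; nearly all actives have a fitted effect of over 50% in size; the assay follows cell death caused by Vpr and the record does not say whether a fall means rescue or toxicity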
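Fission yeast RE007 carrying one integrated HIV-1 vpr copy, seeded at OD 0.01 in PMG+AL medium with 23 nL pinned compound. Grown 24 h at 30 degrees; viability read by BacTiter-Glo luminescence after 5 min.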
Starred values were filed as active, the others as inactive; [ ] = another dose, or the depositor's remark. Unless noted, calls follow the shape of the dose curve; as a rule, active means well fitted rising curve with a large enough effect; inconclusive means small, poorly fitted or top-dose-only effect; inactive means no such curve, though single readings can be large or run the other way. Potency is read from the fitted curve at half-maximal effect.

CCc1cc(Br)ccc1NC(=S)NCCc1ccccc1 was read as StopGo reporter 14%, SARS PLpro yeast -9%, NS1 function inh -70% and RE007 growth inh 1%.
CCCC(C(=O)NC(C)(C)C)N(C(=O)c1snc(C(N)=O)c1N)c1ccc2c(c1)OCCO2 (stereo not drawn) was read as StopGo reporter inconclusive, SARS PLpro yeast 0%, Lassa entry inh -7%[46.1 µM], MARV entry inh inconclusive and RE007 growth inh -12%.
For Cn1c(=O)n(C)c2cc(NC(=O)CSc3nc4ccccc4c(=O)[nH]3)ccc21 the results were StopGo reporter 15%, SARS PLpro yeast -2%, MARV entry inh 2%[46.1 µM], NS1 function inh -21% and RE007 growth inh -15%.
For COCCNC(=O)C1CCCN(S(=O)(=O)c2ccc3c(ccn3C)c2)C1 (stereo not drawn) the results were StopGo reporter -14%, Cruzain noTriton 1%, Lassa entry inh 14%[46.1 µM] and Cruzain Triton -3.7%.
O=S(=O)(NCc1c(Cl)cccc1Oc1ccccc1)c1ccccc1 was read as StopGo reporter -23%, SARS PLpro yeast -7%, Lassa entry inh inconclusive, MARV entry inh inconclusive, NS1 function inh -45% and RE007 growth inh 0%.
For O=C(CC(c1ccccc1)c1ccccc1O)NCCc1ccccc1 (stereo not drawn) the results were StopGo reporter inconclusive, SARS PLpro yeast 0%, Lassa entry inh inconclusive, MARV entry inh 4%, NS1 function inh -5% and RE007 growth inh -3%.
For O=C(COC(=O)c1ccc(-c2nnc(-c3ccccc3)o2)cc1)c1ccccc1 the results were StopGo reporter 41%[activator], Cruzain noTriton 7.9µM*, SARS PLpro yeast 10%, Lassa entry inh inconclusive, MARV entry inh inconclusive, Cruzain Triton -1.5% and NS1 function inh 2%.
For CCc1sc(C(=O)Nc2nc(C)cs2)cc1C the results were StopGo reporter -12%, SARS PLpro yeast -20%, MARV entry inh inconclusive, NS1 function inh -38% and RE007 growth inh inconclusive.
`Cc1ccc2[nH]c(=O)c(C(c3nnnn3Cc3ccccc3)N3CCc4ccccc43)cc2c1` (stereo not drawn) gave StopGo reporter -10%, Cruzain noTriton -25%, SARS PLpro yeast 6%, Lassa entry inh inconclusive, MARV entry inh 10µM*, Cruzain Triton -2.4%, NS1 function inh 9% and RE007 growth inh 7%.
Screening COc1ccc(NC(=O)C2CCCN2S(=O)(=O)c2ccc3c(c2)CC(C)N3C(C)=O)cc1OC (stereo not drawn) returned StopGo reporter -6%, SARS PLpro yeast -1%, Lassa entry inh -16%[46.1 µM], MARV entry inh -2%[46.1 µM], NS1 function inh -7% and RE007 growth inh 6%.
For COc1cc(S(=O)(=O)N2CCOCC2)ccc1NC(=O)COC(=O)c1cc(OC)c(OC)c(OC)c1 the results were StopGo reporter 2%, SARS PLpro yeast 1%, Lassa entry inh -13%, MARV entry inh -25% and RE007 growth inh 8%.
Screening CCCC1OC23CCCCC2C(C#N)(C#N)C1(C#N)C(=N)O3 (stereo not drawn) returned StopGo reporter 20µM*, Cruzain noTriton -10%, SARS PLpro yeast 8%, Lassa entry inh 1%, MARV entry inh 21%, Cruzain Triton 0.1%, NS1 function inh 15% and RE007 growth inh -11%.
Screening Cn1cc(/C=C(\NC(=O)c2ccccc2)C(=O)N2CCOCC2)c2ccccc21 returned StopGo reporter -6%, SARS PLpro yeast -4%, Lassa entry inh -9%[46.1 µM], MARV entry inh 0%[46.1 µM], NS1 function inh 14% and RE007 growth inh 7%.
For O=S(=O)(Nc1c(F)cccc1F)c1ccc(Cl)nc1 the results were StopGo reporter -11%, SARS PLpro yeast 2%, Lassa entry inh -1%, MARV entry inh 4%[46.1 µM] and RE007 growth inh -5%.
`Cc1nn(C)c(Cl)c1CN1CCCC(CCC(=O)NCc2ccccc2F)C1` (stereo not drawn) gave StopGo reporter -20%, SARS PLpro yeast -1%, Lassa entry inh -23%, MARV entry inh -23%[46.1 µM], NS1 function inh 6% and RE007 growth inh -6%.
Screening C#CC(C)(CC)NC(=O)Cn1nnc(-c2ccc(OCc3ccccc3F)cc2)n1 (stereo not drawn) returned StopGo reporter -19%, Cruzain noTriton 6%, Lassa entry inh -25%[46.1 µM], MARV entry inh inconclusive and Cruzain Triton -3.9%.
Screening CC(C)(C)C(=O)Nc1ccccc1C(=O)NCCCn1ccnc1 returned StopGo reporter -15%, SARS PLpro yeast 0%, Lassa entry inh -16%, MARV entry inh 6%[46.1 µM] and RE007 growth inh -7%.
For CCC(C)NC(=O)C1CCN(S(=O)(=O)c2ccc3[nH]c(=O)ccc3c2)CC1 (stereo not drawn) the results were StopGo reporter -4%, SARS PLpro yeast 3%, NS1 function inh -5% and RE007 growth inh -11%.
Screening CCc1sc(C(=O)NC)cc1Br returned StopGo reporter 16%, Cruzain noTriton 1%, Lassa entry inh -13%, MARV entry inh 11%, Cruzain Triton 2.5%, NS1 function inh -3% and RE007 growth inh 33%.
Screening OCc1ccccc1OCCOc1ccc(Cl)c2cccnc12 returned StopGo reporter 3%, Cruzain noTriton -3%, SARS PLpro yeast -5%, Lassa entry inh 1%, MARV entry inh 13%, Cruzain Triton -4.0% and RE007 growth inh 14%.
`Cc1ccc(S(=O)(=O)NNC(=O)c2sc(NS(=O)(=O)c3ccccc3)nc2C)cc1` gave StopGo reporter 13%, SARS PLpro yeast -2%, Lassa entry inh 14%, MARV entry inh 0%, NS1 function inh 2% and RE007 growth inh 2%.
CN(C)S(=O)(=O)c1cccc(NC(=O)c2cc(=O)[nH]c3ccccc23)c1 was read as StopGo reporter 11%, SARS PLpro yeast -1%, NS1 function inh 5% and RE007 growth inh 10%.
`COc1cccc2sc(/N=C/N(C)C)nc12` gave StopGo reporter -4%, SARS PLpro yeast -1%, Lassa entry inh 13%[46.1 µM], MARV entry inh inconclusive, NS1 function inh 2% and RE007 growth inh 22%.
For O=C(O)c1ccccc1C(=O)NNc1ccc(Cl)cc1 the results were StopGo reporter 22%, Cruzain noTriton -9%, SARS PLpro yeast -19%, Lassa entry inh -3%, MARV entry inh 1%, Cruzain Triton 4.1%, NS1 function inh -103% and RE007 growth inh 48%.
CC(=O)c1ccccc1OC(=O)c1c(F)cccc1F was read as StopGo reporter 1%, SARS PLpro yeast -1%, NS1 function inh -1% and RE007 growth inh 0%.
`O=S(=O)(c1ccccc1)N1CCN(S(=O)(=O)N2CCCCC2)CC1` gave Cruzain noTriton -8%, SARS PLpro yeast -3%, Lassa entry inh 7%, MARV entry inh 0%, Cruzain Triton 2.1%, NS1 function inh -11% and RE007 growth inh 1%.
Screening NS(=O)(=O)c1ccc(CCNC(=O)CSc2ccc(Cl)cc2Cl)cc1 returned StopGo reporter -16%, SARS PLpro yeast 1%, Lassa entry inh -15%, MARV entry inh -1%[46.1 µM], NS1 function inh 1% and RE007 growth inh 14%.
Screening Cc1coc2c1c(C)cc1oc(=O)c(CC(=O)NCC(=O)N[C@H](C(=O)O)C(C)C)c(C)c12 returned StopGo reporter -10%, SARS PLpro yeast -2%, Lassa entry inh inconclusive, MARV entry inh 15%[46.1 µM], NS1 function inh 5% and RE007 growth inh 7%.
For COc1ccc(S(=O)(=O)N2CCCN(CC(=O)C(C)(C)C)CC2)cc1 the results were StopGo reporter -3%, Cruzain noTriton 11%, SARS PLpro yeast 7%, Lassa entry inh 0%, MARV entry inh 8%[46.1 µM], Cruzain Triton -2.7%, NS1 function inh 13% and RE007 growth inh -11%.
Screening CCOC(=O)c1ccc(NC(=O)NC(C)C2CCCO2)cc1 (stereo not drawn) returned StopGo reporter 50%[activator], Cruzain noTriton -1%, SARS PLpro yeast 0%, Lassa entry inh 9%, MARV entry inh inconclusive, Cruzain Triton 3.9%, NS1 function inh 1% and RE007 growth inh 6%.
For CC(C)CCNC(=O)C(=O)Nc1ccccc1 the results were StopGo reporter 28%, SARS PLpro yeast -6%, Lassa entry inh -2%, MARV entry inh -4%[46.1 µM] and RE007 growth inh 3%.
Screening Cn1c(=O)n(C)c2cc([N+](=O)[O-])c(N3CCN(C(=O)c4ccc(Cl)cc4)CC3)cc21 returned Cruzain noTriton inconclusive, SARS PLpro yeast 4%, Lassa entry inh 8%, MARV entry inh -1%, Cruzain Triton -1.6%, NS1 function inh -1% and RE007 growth inh 8%.
`COC(=O)c1c(C)sc(-c2c(-c3cccc(OC)c3)[nH]c3c2c(=O)[nH]c(=O)n3C)c1O` gave StopGo reporter -22%, Cruzain noTriton -1%, Lassa entry inh -5%[46.1 µM], MARV entry inh -11%[46.1 µM] and Cruzain Triton -1.7%.
For CCCCC(=O)NNC(=S)NC(=O)CCC the results were StopGo reporter inconclusive, Cruzain noTriton 1%, SARS PLpro yeast 16µM*, Lassa entry inh 0%, MARV entry inh -13%, Cruzain Triton -1.4%, NS1 function inh -2%[9.22 µM] and RE007 growth inh 27%.
For COc1cc(C=O)ccc1OC(=O)c1ccncc1 the results were StopGo reporter -1%, SARS PLpro yeast 0%, NS1 function inh -10% and RE007 growth inh -12%.
O=C1C=C(N2CCCCCC2)C(=O)N1c1ccc(Cl)cc1 was read as StopGo reporter -21%, SARS PLpro yeast 5%, Lassa entry inh inconclusive, MARV entry inh inconclusive, NS1 function inh -1% and RE007 growth inh -7%.
O=C(CNS(=O)(=O)c1ccccc1)N/N=C\c1ccc(Cl)cc1 was read as StopGo reporter -4%, Cruzain noTriton 2%, SARS PLpro yeast -17%, Lassa entry inh 12%, MARV entry inh -2%, Cruzain Triton -5.8%, NS1 function inh -11% and RE007 growth inh 7%.
O=C(/C=C/c1ccc2c(c1)OCO2)NCc1ccncc1 was read as StopGo reporter 12%, SARS PLpro yeast 0%, Lassa entry inh 10%[46.1 µM], MARV entry inh 2%[46.1 µM], NS1 function inh 8% and RE007 growth inh -1%.
OCC[C@@H]1C[C@@H](O)[C@H](O)[C@]2(CCc3ccccc3O2)O1 was read as StopGo reporter -3%, SARS PLpro yeast -3%, NS1 function inh 4% and RE007 growth inh 5%.
COc1ccc(S(=O)(=O)N2CCCCCC2)cc1C(=O)OCc1c(C)noc1C was read as StopGo reporter 9%, Cruzain noTriton inconclusive, SARS PLpro yeast 9%, Lassa entry inh inconclusive, MARV entry inh -14%, Cruzain Triton -0.3%, NS1 function inh -5% and RE007 growth inh 2%.

Assay outcomes as filed in PubChem.
